Assay outcomes deposited in PubChem by several laboratories.
Bead autofluor: compound fluorescence in toxin protease inhibitor counterscreen; fluorescence intensity (no concentration beside the values); AID 624483; compound autofluorescence counterscreen, microsphere flow cytometry; active compounds read high; 360,000 compounds, 3.1% hits;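 active means at least 3 SD above the mean of all compounds, about 16000 in these data; inconclusive means too few beads counted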;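 further: 100 nL of 1 mM stock went into each well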
PrP 5UTR inh: suppresses PrP 5' UTR mRNA reporter expression. inhibition, % (no concentration beside the values). 340,000 compounds, 0.35% hits. cell-based PrP 5' UTR mRNA reporter, plate reader;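 active means every replicate at 50% or more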;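 further: 0 = median of the neutral control wells; tested in H4 reporter cells; numbers are from one replicate; inactives centre near -14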
ugtP null kill: kills S. aureus RN4220 lacking UgtP; S. aureus RN4220 ugtP deletion, OD600 growth, 16 h; some inactives read as strong as hits; growth inhibition, % (no concentration beside the values); 330,000 compounds, 0.54% hits; AID 1259309;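 active means z-score under -3 and OD600 up to 0.15 on both plates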;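 further: plate controls were untreated wells for no effect and antibiotic for full effect; wells of about 80 µL received 100 nL stock; the first replicate is given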
Mtb hypoxia inh: reduces hypoxia-regulated biosensor signal in M. tuberculosis | M. tuberculosis hypoxia-regulated fluorescent reporter, fluorescence | fluorescence inhibition, % (concentration not given with the values) | AID 1159583 | 300,000 compounds, 0.1% hits;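 active means 35 to 45% if threefold the growth effect, above 45% if 1.5-fold the growth effect; inactive means the rest, general growth blockers included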;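 further: wells of about 50 µL received 100 nL stock; 0% = vehicle wells and 100% = reference inhibitor wells; whole bacteria with a GFP reporter of the hypoxia response; strong numbers were not always called active; many hits fall short of the cut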
BJeLR lethal: kills HRASV12-expressing BJeLR cells; BJeLR (HRASV12) viability, CellTiter-Glo ATP luminescence, 48 h; reference of the scale not given here; inhibition, % (concentration not given with the values); 300,000 compounds, 0.17% hits;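 active means replicate mean above 50%; inconclusive means above 50% but judged a plate artefact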;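 further: 50 nL library stock added to about 25 µL; numbers are from one replicate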
RN4220 kill: kills Staphylococcus aureus RN4220. S. aureus RN4220 growth, OD600, 16 h. 330,000 compounds, 0.33% hits. inhibition, % (no concentration beside the values);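 active means z-score of -3 or lower and OD600 up to 0.18 on both plates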;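 further: plate controls were untreated cells for no effect and reference antibiotic for full effect; stock transfer was 100 nL into about 80 µL; one replicate is shown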
Mtb hypoxia inh growth: recorded beside Mtb hypoxia inh, whose call it bears; growth inhibition, %; measured here: M. tuberculosis growth (absorbance);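 0% = vehicle and 100% = reference antibiotic; read after six days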
Numbers without * were called inactive; u = inconclusive; x = not tested or not shown; & = joins results of further samples.

Start of the data: the first four records, to show the layout:
no.	Structure	Bead autofluor	PrP 5UTR inh	ugtP null kill	Mtb hypoxia inh	Mtb hypoxia inh growth	BJeLR lethal	RN4220 kill
1	Cc1ccc2c(COC(=O)c3n[nH]c4ccccc34)cc(=O)oc2c1	u	-65	-8	8	0	-4	5.0
2	COc1cc(C(C)=O)ccc1OCC(=O)NC(=O)Nc1ccc(C)cc1C	5448	-17	1	2	-2	x	5.7
3	CCOC(=O)C(C)Sc1nnc(CSc2nc3nc(C)cc(C)n3n2)o1 (configuration not stated)	2514	-11	4	-5	6	-17	1.9
4	CC(NC(=O)c1nc[nH]c1C(=O)NCc1ccccc1)c1ccccc1 (configuration not stated)	x	x	0&-5	11&15	-1&2	x	1.4&6.6

This part in full, repeating the preview:
no.	Structure	Bead autofluor	PrP 5UTR inh	ugtP null kill	Mtb hypoxia inh	Mtb hypoxia inh growth	BJeLR lethal	RN4220 kill
1	Cc1ccc2c(COC(=O)c3n[nH]c4ccccc34)cc(=O)oc2c1	u	-65	-8	8	0	-4	5.0
2	COc1cc(C(C)=O)ccc1OCC(=O)NC(=O)Nc1ccc(C)cc1C	5448	-17	1	2	-2	x	5.7
3	CCOC(=O)C(C)Sc1nnc(CSc2nc3nc(C)cc(C)n3n2)o1 (configuration not stated)	2514	-11	4	-5	6	-17	1.9
4	CC(NC(=O)c1nc[nH]c1C(=O)NCc1ccccc1)c1ccccc1 (configuration not stated)	x	x	0&-5	11&15	-1&2	x	1.4&6.6
5	N#Cc1cccc(S(=O)(=O)Nc2c(NC3CCCCC3)c3ccccc3oc2=O)c1	5899	-10	0	14	0	5	4.2
6	CCOc1ccc(OCCCC(=O)ON=C(N)c2ccccc2C)cc1	u	-5	7	0	9	x	3.1
7	O=C(/C=C/c1ccc(S(=O)(=O)N2CCOCC2)cc1)NC(=S)Nc1ccc(Cl)cc1Cl	2077	-8	2	12	3	2	4.7
8	O=C(N/N=C/c1ccc(OCCCF)cc1)c1cc(OCC(F)(F)F)ccc1OCC(F)(F)F	2244	-4	x	x	x	3	x
9	CC(C)C(=O)NC(=S)Nc1ccc(S(=O)(=O)Nc2ccccc2)cc1	2591	-8	64	13	3	9	7.3
10	COc1ccc(OC)c(/C=N/NC(=O)c2cc3c(OC)cccc3[nH]2)c1	4321	5	x	x	x	-7	x
11	CCn1c(CCNC(=O)c2ccc(Cl)cc2)n[nH]c1=S	2390	-26	8	9	2	-12	2.7
12	CN(C)c1ccc(C=Cc2cnccn2)cc1	4360	-21	-7	20	12	x	7.6
13	CC(OC(=O)c1cc(S(=O)(=O)N2CCOCC2)ccc1Br)C(=O)N1CCOCC1 (configuration not stated)	4004	-14	3	4	2	x	0.7
14	CC1(C)CN(c2ccc(Br)cc2Br)C1=O	2225	-24	0	5	3	-7	13
15	COc1ccc(OC)c(C(=O)COC(=O)c2cc(C)oc2C)c1	2596	0	17	x	x	-1	0.9

(listing goes on)
no.	Structure	Bead autofluor	PrP 5UTR inh	ugtP null kill	Mtb hypoxia inh	Mtb hypoxia inh growth	BJeLR lethal	RN4220 kill
16	Cc1cc(C)n(-c2ncnc3c2oc2ccccc23)n1	3369	-15	-19	x	x	-5	-0.4
17	CC(C)(C)NCC(=O)c1c[nH]c2ccccc12	4519	-36	-2	x	x	15	0.0
18	CC1(C)C2CCC1(C)C(OCCNCCOC(=O)Nc1ccccc1)C2 (configuration not stated)	4465	-6	6	7	10	9	4.7
19	Cc1ccc(C(=O)N2CCCC(CCC(=O)NCc3ccc(F)c(F)c3)C2)cn1 (configuration not stated)	4567	4	12	4	-1	7	5.6
20	CCCC1CC(CSc2ncn[nH]2)OC1=O (configuration not stated)	7825	2	-3	4	0	-8	4.1
21	COCCNC(=O)c1cc(Br)ccc1Cl	8837	3	1	4	4	2	0.6
22	CC(=O)N1CCC(N(CCN2CCOCC2)C(=S)Nc2cc(C)cc(C)c2)CC1	3566	-7	-5	-5	9	15	-0.4
23	CCCc1ccc2oc(C(=O)N3CCC[C@H]3CO)c(C)c2c1	3087	-48	-1	15	4	-7	4.7
24	C=C(C)C1Cc2nc(N)nc(C)c2C1 (configuration not stated)	4080	8	1	10	9	9	2.0
25	CN(c1ccccc1)S(=O)(=O)c1cccc(NC(=O)Cc2ccc(Cl)cc2)c1	x	-26	-2	3	-6	x	-4.9
26	Cc1cc(O)c(C(C)C)cc1N=Nc1ccccc1C(=O)O	4811	-13	3	51*	6.9*	17	3.5
27	O=C(N/N=C/c1c(Cl)cccc1Cl)c1cccc(F)c1	10858	-41	x	x	x	-4	x
28	COc1ccc(C=O)cc1OC(=O)N1CCOCC1	3667	-6	11	7	11	-3	3.9
29	CC(=NNC(=O)c1ccc(=O)[nH]n1)c1cccnc1	x	x	2	5	2	x	3.0
30	Cc1occc1-c1nnc(SCc2nc3ccccc3c(=O)n2CC#N)n1C	23590*	-9	-22	-3	6	4	6.8

(further entries)
no.	Structure	Bead autofluor	PrP 5UTR inh	ugtP null kill	Mtb hypoxia inh	Mtb hypoxia inh growth	BJeLR lethal	RN4220 kill
31	Nn1c(SCC(=O)Nc2ccc(F)cc2)nnc1-c1ccccn1	9645	-21	-11	7	11	-3	6.5
32	CC(=O)Nc1ccc(N=Nc2c(C)[nH]n(C(N)=S)c2=O)cc1	2863	-2	2	6	7	9	1.6
33	CC(C)CC(=O)Nc1ccc(-c2nnn(CC(=O)NCc3ccco3)n2)cc1	2058	-43	3	-3	-6	-1	2.0
34	COc1ccc(OCC(=O)Nc2cccc(OC)c2)cc1	17719*	-22	2	5	4	-9	6.8
35	CCN(CC)CCCSc1nc2ccccc2s1	4150	-47	6	-2	8	6	4.1
36	Cc1cc(NCCCOC(C)C)n2c(nc3ccccc32)c1C#N	3609	-16	1	5	1	12	-0.8
37	N#C/C(N)=C(/N)C#N	5737	-9	15	9	3	x	1.7
38	Cc1cc(C)n2nc(C(=O)Nc3ccc4c(c3)CCC4)nc2n1	4527	-59	1	-4	9	3	1.4
39	COc1cc(C2NC(=O)NC(C)=C2C(=O)OC2CCCC(C)C2)ccc1O (configuration not stated)	8949	-17	10	14	5	-3	9.7
40	CC(NC(=O)Oc1cccc2ccccc12)c1ccccc1 (configuration not stated)	4000	-21	-1	8	14	x	3.1
41	CC(C)(C)c1ccc(C=NNC(=O)C[n+]2ccccc2)cc1	x	x	5	5	-6	x	5.8
42	CCc1cc2c(=O)n(Cc3ccco3)c(SCc3c(C)noc3C)nc2s1	3869	-25	5	-7	3	15	-0.4
43	CC(C)OC(=O)c1cccc(C(=O)Oc2ccccc2)n1	9140	-4	0	-2	6	0	3.5
44	NC(=O)C1(N2CCCCC2)CCN(CC(=O)Nc2ccccc2-c2ccccc2)CC1	8810	-19	9	3	-3	-7	1.0
45	NC(=O)C1CCN(C2=C(NS(=O)(=O)c3ccccc3)C(=O)c3ccccc3C2=O)CC1	3844	-17	6	2	-4	12	7.7

Going on with the list.
no.	Structure	Bead autofluor	PrP 5UTR inh	ugtP null kill	Mtb hypoxia inh	Mtb hypoxia inh growth	BJeLR lethal	RN4220 kill
46	COc1ccc(Br)cc1CN1CCSCC1	4179	-16	1	3	14	0	-0.6
47	CC(C(=O)N(C)CC(=O)Nc1ccccc1C(F)(F)F)N1C(=O)c2ccccc2C1=O (configuration not stated)	9320	-24	10	-1	2	x	6.3
48	COc1ccc(CC(=O)N/N=C/c2cccs2)cc1OC	3446	-20	x	x	x	5	x
49	CSCCC(NC(=O)COc1ccccc1)C(=O)OCc1ccc([N+](=O)[O-])cc1 (configuration not stated)	u	-14	-2	0	-3	-5	3.9
50	O=C(NN=C1CC2CC=CC12)c1ccc(Br)cc1 (configuration not stated)	x	x	14	2	13	x	2.9
51	COC(=O)C1=C(C)N=C2SC(C#N)=C(N)N2C1c1ccc(OC)cc1 (configuration not stated)	2529	-12	-2	5	6	6	7.3
52	COc1c(O)ccc2c1CN1CCc3cc4c(cc3C1C2)OCO4 (configuration not stated)	4960	-21	5	x	x	2	6.2
53	COC(=O)NN=Cc1cccs1	x	x	1	10	13	x	2.2
54	CN(C)S(=O)(=O)c1cccc(NC(=S)N(CCC#N)Cc2cccnc2)c1	4486	-29	4	15	7	13	3.9
55	Cc1ccc([C@H]2C(C(=O)O)=C[C@@H](C(C)(C)C)N2S(=O)(=O)c2ccc(C)cc2)cc1	3682	-10	-9	3	3	x	5.7
56	O=C(OCc1ccccc1)C1=NNC2C(=O)N(c3ccc(Br)cc3)C(=O)C12 (configuration not stated)	3970	-29	x	x	x	-3	x
57	Cc1nc(NCc2cccnc2)c2c3c(sc2n1)CC(C)CC3 (configuration not stated)	4395	-28	-6	-2	5	3	-5.4
58	CSc1nc(C)cc(SC(C(C)=O)C(=O)Nc2ccccc2)n1 (configuration not stated)	3692	-16	14	7	4	0	2.2
59	CCC1(c2ccccc2)NC(=S)N(c2ccc(C)cc2)N1 (configuration not stated)	4637	76*	1	9	8	-9	7.6
60	O=C(C[n+]1ccccc1)Nc1ccccc1C(F)(F)F	3729	-17	5	12	8	-2	1.3

Later entries
no.	Structure	Bead autofluor	PrP 5UTR inh	ugtP null kill	Mtb hypoxia inh	Mtb hypoxia inh growth	BJeLR lethal	RN4220 kill
61	C=CCSc1nsc(NC(=O)Nc2cccc(C(C)=O)c2)n1	4061	4	-8	-10	6	-7	12
62	CCNc1cc(N2CCNCC2)ccc1[N+](=O)[O-]	x	x	2	10	4	-2	2.1
63	Nc1ccc2nc(CCCCCCCCc3nc4ccc(N)cc4[nH]3)[nH]c2c1	3084	-29	7	4	7	-10	4.0
64	COCCNc1ncnc2nc[nH]c12	8733	-21	2	0	6	-18	2.0
65	NS(=O)(=O)c1cccc(NC(=O)/C=C/c2cccs2)c1	4436	-61	3	14	6	3	5.5
66	Cn1cnc([N+](=O)[O-])c1Sc1n[nH]c(N)n1	3752	5	0	13	-2	-2	0.8
67	CC(=O)N(C)c1ccc(NC(=O)Nc2cccc3ccccc23)cc1	5657	-52	0	-1	-2	2	-4.0
68	Cc1ccc(CN2CCNC(=O)C2CC(=O)O)cc1 (configuration not stated)	5174	-23	-8	2	0	0	6.6
69	O=C(CCCN1C(=O)c2cccc3cccc(c23)C1=O)NCc1cccs1	4577	-13	-2	3	7	-2	4.1
70	CC(=O)c1ccc(OCCCOc2cccc3cccnc23)cc1	3797	-7	5	2	4	8	9.1
71	Cc1cccc(NS(=O)(=O)c2coc(C(N)=O)c2)c1C	6048	-1	-5	x	x	-1	1.9
72	N/C(CS(=O)(=O)c1ccccn1)=N\OC(=O)c1ccccc1Cl	x	-86	7	5	12	-6	3.0
73	CSc1nnc(CNS(=O)(=O)c2ccc(F)cc2)n1C	4002	-19	1	16	1	3	5.3
74	CCOc1ccc(NCC(=O)N/N=C/C=C/c2ccccc2)cc1	2657	-43	x	x	x	-5	x
75	O=c1ccc(-c2nc3cc(Cl)ccc3n2Cc2ccccc2)c[nH]1	4540	-12	15	-1	3	2	-4.2
76	O=c1[nH]c(Nc2ccccc2)cc2cc(Br)ccc12	4015	-24	3	19	8	11	-2.0
77	Cc1cccc(OCC(=O)N2CCC(N3CCCCCC3)CC2)c1	u	-30	11	9	0	0	4.2
78	COC(=O)CNC(=O)C1Nc2ccc(OC(F)(F)F)cc2C2C=CCC12 (configuration not stated)	3588	-16	-5	0	3	-5	6.1

Not a hit list (roughly 4% active in at least one column).
